High-throughput results: PubChem, several laboratories
PABP FP inh: PABP poly(A) RNA binding inhibitors, primary screen, biochemical, fluorescence polarization, uHTS. Polyadenylate-binding protein 1 (Homo sapiens), P11940. inhibition, % at 35 µM. actives 1% (n = 290,000). AID 2014, 2009;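 active means 50% or more with normal probe brightness, or confirmed in later tests; inconclusive means above 50% with abnormal brightness, or retests that disagree; inactive means below 50% or failed in later tests; about a fifth of its hits are not listed in these tables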;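 further: calls also rest on retests at 20 µM and on dose response follow-up; controls were probe without protein and protein plus probe with vehicle; some compounds called inactive have numbers as strong as hits; many hits fall short of the cut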
Target sequence (P11940 whole entry, looked up): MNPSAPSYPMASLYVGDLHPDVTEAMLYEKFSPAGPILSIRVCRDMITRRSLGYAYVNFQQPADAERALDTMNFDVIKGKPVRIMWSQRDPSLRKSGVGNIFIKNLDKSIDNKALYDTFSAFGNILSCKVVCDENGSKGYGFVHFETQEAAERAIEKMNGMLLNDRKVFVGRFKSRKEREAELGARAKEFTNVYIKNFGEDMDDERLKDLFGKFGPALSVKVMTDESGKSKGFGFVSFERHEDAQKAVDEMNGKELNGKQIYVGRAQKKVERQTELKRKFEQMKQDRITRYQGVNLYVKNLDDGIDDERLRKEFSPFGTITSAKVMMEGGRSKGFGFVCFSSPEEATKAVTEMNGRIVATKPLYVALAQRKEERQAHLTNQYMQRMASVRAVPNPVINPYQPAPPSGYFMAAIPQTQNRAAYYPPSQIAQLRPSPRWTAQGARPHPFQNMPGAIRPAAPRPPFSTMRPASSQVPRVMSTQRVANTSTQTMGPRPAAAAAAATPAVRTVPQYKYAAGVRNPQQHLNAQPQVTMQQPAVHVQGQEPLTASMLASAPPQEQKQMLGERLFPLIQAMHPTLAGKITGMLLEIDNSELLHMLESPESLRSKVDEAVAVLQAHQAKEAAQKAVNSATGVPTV
MT1-MMP act inh: blockers of MT1-MMP proenzyme processing, primary screen, HT1080 RFP-PRO-GFP cells, GFP/RFP fluorescence | Matrix metalloproteinase-14 (Homo sapiens), P50281 | GFP/RFP ratio fluorescence, overnight; percent of plate control window, DMSO zero | GFP/RFP ratio change, % at 20 µM | actives 0.061% (n = 360,000);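 active means GFP/RFP ratio change of at least 30% with cell ATP level not reduced by more than half and red fluorescence within 50% of control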; further: strong numbers were not always called active
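Assay system: RFP-PRO-GFP reporter HT1080 cells; read-out basis: GFP/RFP fluorescence ratio; benchmarks: DMSO wells and RFP-L50D-GFP cells; doses: 20 µM single dose, 1% DMSO; schedule: overnight cell settling, then overnight compound exposure, 37 °C, 5% CO2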
eIF4H FP inh: human eIF4H binding inhibitors, primary screen, translation initiation inhibitor project, biochemical, uHTS, fluorescence polarization; Eukaryotic translation initiation factor 4H (Homo sapiens), Q15056; eIF4H fluorescence polarization binding assay; inhibition, % at 35 µM; actives 0.94% (n = 290,000);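 active means 50% or more with normal probe brightness, or confirmed in later tests; inconclusive means above 50% with abnormal brightness, or retests that disagree; inactive means below 50% or failed in later tests; about a fifth of its hits are not listed in these tables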;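 further: calls also rest on retests at 20 µM and on dose response follow-up; 0% = protein and probe with vehicle and 100% = probe without protein; strong numbers were not always called active; many hits fall short of the cut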
Yeast UUG start: modulators of yeast start codon fidelity, primary screen, whole organism, S. cerevisiae, single point, plate reader | S. cerevisiae UUG-firefly luciferase reporter, luminescence/redox ratio | activity score, % at 18.7 µM | actives 0.13% (n = 350,000);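 active means replicate mean at a twofold rise or more, about +100% in these data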;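 further: firefly luciferase made from a UUG start codon reports start codon fidelity; reporter light over untreated wells divided by growth signal over untreated wells; some hits fall short of that in this replicate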
CSC inhib: cancer stem cell viability inhibitors, primary screen, luminescence | actives 1.1% (n = 300,000) | inhibition, % at 7.5 µM | AID 2717, 2010 | cancer stem cell-like cells viability;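 active means mean at 75% or more and at least half the replicates too; inconclusive means mean and replicates disagree; tested in HMLE shEcad cells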;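 further: 0% = median of negative and 100% = median of positive control wells; the first replicate is given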
HIV Env fusion: inhibitors of HIV-1 Env-driven cell-cell fusion, primary screen, HeLa-JRFL effector, CEM21 target cells, luciferase. inhibition, % at 12.3 µM. actives 1.1% (n = 360,000);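 active means mean replicate inhibition score of at least 50 and every replicate individually at or above 50; inconclusive means only one of the two criteria met; inactive means mean below 50 and not all replicates reaching 50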;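 further: 0% = plate neutral controls and 100% = maraviroc near 300 nM; one replicate is shown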
Rce1 inh: yeast Rce1p protease inhibitors, primary screen, biochemical, fluorescence, cell-free homogeneous; CAAX prenyl protease 2 (Saccharomyces cerevisiae (strain ATCC 204508 / S288c)), Q03530; actives 0.27% (n = 290,000); yeast membranes, quenched prenylated peptide cleavage fluorescence; calls only; AID 2563, 2010;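 active means fall in fluorescence gain of 50% or more versus controls, with final raw signal at or below 3038400; inconclusive means same 50% fall but final raw signal above 3038400; inactive means fall in fluorescence gain under 50%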;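 further: plate controls were neutral control wells for no effect and wells lacking membranes for full effect; tested at 10 µM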
Target sequence (Q03530 whole entry, looked up): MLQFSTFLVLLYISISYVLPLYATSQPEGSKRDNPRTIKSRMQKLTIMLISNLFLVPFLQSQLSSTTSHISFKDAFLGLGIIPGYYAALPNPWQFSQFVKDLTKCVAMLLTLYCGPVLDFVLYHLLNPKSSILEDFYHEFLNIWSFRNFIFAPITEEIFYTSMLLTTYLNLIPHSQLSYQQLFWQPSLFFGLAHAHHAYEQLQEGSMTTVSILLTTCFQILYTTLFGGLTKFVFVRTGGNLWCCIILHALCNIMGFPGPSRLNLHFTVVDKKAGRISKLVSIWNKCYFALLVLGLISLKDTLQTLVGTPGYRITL
MT1-MMP act inh RFP: recorded beside MT1-MMP act inh, whose call it bears; RFP signal change, %; measured here: RFP expression control read;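 0 = vehicle wells; hits needed this value within 50% of zero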
Starred values were filed as active, the others as inactive; i = inactive; ? = inconclusive; / = no result given; & = joins results of further samples; [ ] = remark or other dose.

Structure	MT1-MMP act inh	Rce1 inh	Yeast UUG start	MT1-MMP act inh RFP	CSC inhib	PABP FP inh	HIV Env fusion	eIF4H FP inh
O=C(Nc1ccc(-c2nc3cc(Cl)ccc3c(=O)o2)cc1)c1ccco1	-1	i	-5	1	-1	-5	3	35
O=C(Cc1ccccc1)Nc1scc(-c2ccccc2)c1C(=O)N1CCOCC1	-8	i	-6	0	-13	13	/	2
O=C(COc1ccc(Cl)cc1Cl)NN=C1c2ccccc2-c2ccccc21	-2	i	/	0	3	-2	-5	-3
CCN(CC(=O)Nc1c(F)cccc1F)C(=O)/C=C/c1ccc(C)cc1	0	/	-11	-2	/	/	-45	/
CC(C)CNC(=O)C(=O)NNC(=O)c1ccco1	0	i	/	2	-8	-3	41	-14
CC(=O)Nc1ccc(CNc2nc(NCc3cccs3)nc3ccsc23)cc1	-4	/	-4	-3	/	/	3	/
CC(C)(C)OC[C@H](NC(=O)c1[nH]cnc1C(=O)Nc1ccccc1F)C(=O)OC(C)(C)C	-12	/	11	-12	/	/	-7	/
COc1cccc(NC(=O)N2CCc3nc(Nc4ccc(C(C)C)cc4)ncc3C2)c1	6	/	-21	-13	/	/	10	/
Cc1cccc2cc(CN(Cc3cccnc3)C(=O)c3cccs3)c3nnnn3c12	/	i	/	/	-6	3	/	-6
Cc1cccc(Nc2nc(-c3cccs3)cs2)n1	-13	i	-26	-21	14	5	/	-1
CCCOc1ccc(N2CC(C(=O)Nc3ccccc3F)CC2=O)cc1 (stereo not drawn)	-1	i	-4	2	-2	7	/	-4
Cc1cccc(N2CCN(C(=O)C3CC(=O)N(c4ccc5c(c4)OCCO5)C3)CC2C)c1 (stereo not drawn)	4	/	-3	-5	29	/	/	/
Cc1ccccc1OCCC(=O)OCC(=O)NCCc1ccccc1	0	i	-1	4	-7	/	-22	/
CN1Cc2c(N3CCOCC3)nc3sc(C#N)c(N)c3c2CC1(C)C	-3	i	/	1	4	-6	10	10
C=CCn1cc(C(=O)N2CCN(c3ccccc3)CC2)c(=O)c2cc(S(=O)(=O)N3CCCC3)ccc21	-2	i	0	-1	-6	-5	7	-11
COc1ccc(-n2nnnc2SCC(=O)c2ccc(O)c(O)c2)cc1	-4	i	0	-6	56	18	-232	5
COc1ccccc1N1CCN(C(=O)c2cc(S(=O)(=O)N3CCCCC3)ccc2C)CC1	6	/	-3	-7	-6	/	11	/
COc1ccc2c(=O)c(-c3ccccc3)c(C)oc2c1	1	i	-3	1	11	-8	-473	-2
Cc1nn(CC(=O)Nc2ccc(C(=O)N(C)C)cc2)c(=O)c2ccccc12	0	i	20	2	1	-6	-133	2
Cc1ccc(C)c(S(=O)(=O)N2CCCOC2CNC(=O)C(=O)NCc2ccco2)c1 (stereo not drawn)	-4	i	/	-4	-6	12	8	6
COc1cc2c(cc1OC)CN(c1nc(CN3CCCC3)nc3sc(C)c(C)c13)CC2	-5	i	/	-5	-8	8	2	1
O=C(CN1C(=O)C2CCCCC2C1=O)Nc1nc(-c2ccccn2)cs1 (stereo not drawn)	4	i	-33	3	/	7	/	19
Cc1c(N)cc(C(=O)N2CCOCC2)cc1[N+](=O)[O-]	3	i	-7	3	3	2	-10	-2
O=C(NCC1CCCO1)c1ccc2nc(N3CCCCC3)sc2c1 (stereo not drawn)	4	i	-18	1	-4	-40	-41	-23
CC1(C(=O)OCC(=O)Nc2cccc(S(=O)(=O)NC3=NCCCCC3)c2)CC1(Cl)Cl (stereo not drawn)	-1	i	/	-4	1	-9	-12	-3
Cc1ccc(NN2C(=O)C=C(c3ccccc3)C2=O)cc1	-1	i	-29	-1	/	8	-52	-2
CCC(C)c1ccc(NC(=O)c2ccco2)cc1 (stereo not drawn)	4	i	-61	0	-3	0	-170	5
COc1ccc2oc(C(=O)NC3CCCCC3)c(C)c2c1	-2	i	-19	0	-2	-6	-54	-14
CSC1=NC(=O)/C(=C/c2ccc(SC)cc2)S1	-6	i	/	-5	-3	0	-38	9
COCCNC(=O)C(OC(=O)c1ccco1)c1ccccc1Cl (stereo not drawn)	3	i	-7	6	-6	-3	5	-3

More results.
Structure	MT1-MMP act inh	Rce1 inh	Yeast UUG start	MT1-MMP act inh RFP	CSC inhib	PABP FP inh	HIV Env fusion	eIF4H FP inh
COc1ccc(-c2nn(CCC(=O)O)cc2/C=N/NC(N)=S)cc1	-13	i	-19	-4	-27	-4	-11	-6
CC1(C(=O)O)CCN1C(=O)c1cccc(OC(F)(F)F)c1 (stereo not drawn)	2	/	-9	3	/	/	-36	/
CCOc1cc(/C=C2\C(=O)N(Cc3ccco3)C(C)=C2C(=O)OC)ccc1O	-4	i	/	4	7	0	1	-7
CCOc1ccc(C2C(C#N)=C(N)N(N(C)C)C3=C2C(=O)CC(C)(C)C3)cc1 (stereo not drawn)	-1	i	2	-1	9	-8	4	-1
COc1ccc(S(=O)(=O)N(C)C[C@H]2Oc3c(NC(=O)NC(C)C)cccc3C(=O)N([C@H](C)CO)C[C@@H]2C)cc1	2	/	3&-3	4	/	/	14[16.7 µM]	/
CCN(C[C@H]1N[C@@](CC)(C(=O)OC)[C@H]2C(=O)N(C)C(=O)[C@@H]12)S(=O)(=O)c1ccc(F)cc1	4	/	-29	4	/	/	-28	/
O=C(Nc1ccc(C(=O)N2CCCC2)cc1)C1CC1	1	/	-5	4	/	/	-22	/
CCn1c(=O)c2sccc2n2c(CCCC(=O)N3CCN(c4ccccn4)CC3)nnc12	3	i	-6	4	3	16	1	0
COc1ccc(C(CC(=O)c2ccc(C)cc2)Nc2ccc([N+](=O)[O-])cc2)cc1 (stereo not drawn)	-9	i	/	-9	38	-6	-3	3
O=C(CCN1C(=O)c2ccccc2C1=O)Nc1cc(F)ccc1F	-8	i	-21	-6	-6	-3	/	4
Cc1cccc(N(NC(=O)C(C)(C)O)C(=O)c2ccccc2)c1	2	i	/	5	-3	-3	/	-3
O=C(NNC(=O)C1CC1)c1ccc(F)cc1F	-2	/	-34	2	13	/	-31	/
Cc1cc(NC(=O)COC(=O)C(C)Oc2ccc(Cl)cc2Cl)no1 (stereo not drawn)	-4	i	-16	2	/	5	-3	-4
Cc1c(NC(=O)c2noc3c2CCc2ccccc2-3)c(=O)n(-c2ccccc2)n1C	-4	i	-20	-1	-11	/	-6	/
O=C(CSc1nnc(-c2ccco2)n1CC1CCCO1)N1CCCCC1 (stereo not drawn)	1	i	/	3	/	3	/	-8
O=C1Nc2ccccc2C12Nc1ccccc1S2 (stereo not drawn)	/	i	/	/	2	8	/	3
COc1cc(NC(=O)CN2C(=O)NC(C)(CC(C)C)C2=O)cc(OC)c1 (stereo not drawn)	0	/	-15	1	-5	-16	3	-10
CCCCOC(=O)c1cccc(NC(=O)CC)c1	2	i	1	6	-2	-3	-55	-4
COc1ccc(/C(N)=N/OC(=O)C2CCC(=O)N2S(=O)(=O)c2ccc(C)cc2)cc1OC (stereo not drawn)	-2	i	/	-1	/	-3	13	-9
Cc1cccc(OCCNC(=O)CCNS(=O)(=O)c2ccc3ccccc3c2)c1	3	/	-2	-1	4	/	11	/
COc1cccc(-c2cc(C(F)(F)F)nc(N3CCN(c4ccccc4)CC3)n2)c1	2	i	-16	4	33	5	0	-10
CCOC(=O)N1CCN(C(=O)c2cn(CC)c3ccc(S(=O)(=O)N4CCCC4)cc3c2=O)CC1	2	i	4	4	-7	1	-110	2
CCCc1cc(=O)[nH]c(SC(C)C(=O)N2c3ccccc3CC2C)n1 (stereo not drawn)	5	/	-3	-2	-8	/	/	/
Cc1ccc2oc(=O)c3cnn(CC(=O)N4CCCCCC4)c3c2c1	0	i	5	1	-9	-2	-19	-2
CC12CCC(C(=O)NCc3ccc(Cl)cc3)(OC1=O)C2(C)C (stereo not drawn)	-1	i	-8	2	-2	-4	30	-8
O=C(O)c1sccc1S(=O)(=O)N1CCCCC1	5	/	-13	6	/	/	-13	/
COc1ccccc1N(CC(O)CN1CCCC1)S(=O)(=O)c1ccccc1 (stereo not drawn)	-5	i	-13	0	-12	3	-26	6
COCCN(C(=O)COC(=O)C1(C)CC1(Cl)Cl)c1c(N)n(Cc2ccccc2)c(=O)[nH]c1=O (stereo not drawn)	-4	i	4	0	/	-2	-11	-8
CCN(CC)S(=O)(=O)c1ccc(N2CCOCC2)c(NC(=O)CCOc2ccccc2)c1	3	i	-4	2	-15	-1	-16	2
CC(=O)/C(=N/Nc1cccc(Cl)c1)N1CCOCC1	-1	i	/	2	8	-6	33	-4

Next structures follow.
Structure	MT1-MMP act inh	Rce1 inh	Yeast UUG start	MT1-MMP act inh RFP	CSC inhib	PABP FP inh	HIV Env fusion	eIF4H FP inh
CSCCNC(=O)c1cccc(Cl)c1	0	/	/	5	3	-2	-14	-4
COC(=O)c1ccc(Cn2nnc3ccccc3c2=O)o1	2	i	-3	-1	-10	1	-6	4
Oc1c(Cl)cc(Cl)cc1C=Nc1ccc(N2CCOCC2)cc1	-1	i	-8	3	-6	-4	22	5
CSc1nc(C)c2c(n1)N(c1ccc(C(F)(F)F)cc1)CC2	-2	i	-7	2	/	-2	/	-5
CCOc1ccc(C(C)=O)cc1COC(=O)c1ccc2c(c1)NC(=O)CS2	0	/	-16	-16	/	/	-15	/
Cc1cc(C)c(S(=O)(=O)N2CCOC2CNC(=O)C(=O)NCc2cccnc2)c(C)c1 (stereo not drawn)	-3	i	-5	2	-14	0	37	-9
CCn1cc(C2=NCCO2)c2ccccc21	2	i	1	2	-17	5	i	-9
Cc1ccc(C(=O)NCCC2=CCCCC2)cc1S(=O)(=O)N1CCCCC1	-8	i	-11	-27	32	/	0	/
O=S(=O)(c1cnc[nH]1)N1CCN(c2ccc(F)cc2)CC1	-4	i	/	-5	-4	-3	7	0
Cc1cccn2c(=O)c3cc(C(=O)NC4CCCC4)n(C)c3nc12	-4	i	-10	-12	47	3	-214	-7
O=C(COC(=O)c1cnccn1)NCc1ccccc1	-2	i	-14	-3	-8	-8	-10	-10
COc1ccc(-c2nn(-c3ccccc3)cc2C(=O)N/N=C/c2ccc([N+](=O)[O-])o2)cc1	-15	i	/	-14	-1	?	-6	?
Nc1cc(Cl)nnc1Cl	-1	i	-8	4	/	0	5	-6
O=C(c1cccc(S(=O)(=O)N2CCOCC2)c1)N(Cc1nnc(-c2ccccc2Cl)o1)C1CC1	-8	i	-12	-5	-11	/	-8	/
Cn1nc(-c2ccccc2)c(-c2nc(-c3ccccc3Cl)no2)c1Cl	-4	i	-19	-6	-1	4	5	-11
Cc1ccccc1Cn1cc(S(=O)(=O)CC(=O)N2CCCCC2)c2ccccc21	6	i	14	-4	-11	2	-14	-7
CCCn1nnnc1NC(=O)COc1ccc(Br)cc1	-1	i	2	4	3	1	-8	4
CCN1CCN(C(=S)NC(=O)c2cccc(Br)c2)CC1	0	/	-16	4	-6	/	/	/
CC1(C)CC(=O)CC(=Nc2ccc(C(=O)O)cc2)C1	-2	i	12	0	5	1	/	-10

A portion of the library; rates above refer to the full screens.
